# Screening data (PubChem)
# PMP22 txn: PMP22 gene transcription modulation | S16 Pmp22-F2sN Schwann cells (luciferase reporters placed in the Pmp22 gene), FLuc/NLuc coincidence luminescence, 24 h | Potency, µM (top dose mostly 57.5 µM), for inactives: at the highest dose activity change, negative = inhibition, hits mostly inhibitors | hit rate 2% among 43,000; active = clear falling dose curves in both reporters; inconclusive = both reporters move, but less clearly or upward; inactive = either reporter flat; the % is the NLuc reporter signal; also: % is scaled to controls: 0 for no effect and ±100 for the full control effect; some results filed as inactive show a strong effect at the top dose
#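 S16(c9) Schwann cells with FLuc/NLuc coincidence reporter in the Pmp22 3' UTR; compounds pin-transferred, 24 h at 37C. Dual-luciferase read: FLuc first, then NLuc after Stop&Glo, each 10 min at room temperature.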
# HTT prom inh: HTT promoter inhibition; hit rate 0.93% among 48,000; HEK293 HTT promoter firefly luciferase reporter (activity 0% = vehicle and -100% = no light), 24 h; Potency, µM (series often up to 57.5 µM), for inactives: top-dose activity change, negative = inhibition, hits mostly inhibitors; active = well fitted inhibition curve with a large enough effect; inconclusive = small, poorly fitted or top-dose-only effect; inactive = no such curve, though single readings can be large or run the other way; also: nearly all actives have a fitted effect of over 50% in size
#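 HEK293 cells carrying firefly luciferase reporters were seeded at 2,500 per well in Opti-MEM and cultured for 24 h. They were then treated with compounds at up to 57.5 uM final for 24 h at 37 degrees C before Dual-Glo luminescence readout.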
# * = called active by the depositor; ? = inconclusive; nt = not tested or not shown; [ ] = remark or other dose. Potency is read from the fitted curve at half-maximal effect.
SMILES,PMP22 txn,HTT prom inh
CCOC(=O)c1ccc(NC(=O)Nc2c[nH]c(=O)[nH]c2=O)cc1,-4%,9%
Cc1ccccc1-c1nc(CN2CCC(C(=O)NCc3ccccc3Cl)CC2)c(C)o1,?,6%
COc1ccc(-c2cc(C(=O)NC(C)c3ccccc3)c3cc(C(C)C)ccc3n2)cc1 (stereo not given),?,-14%
O=C(CCS(=O)(=O)c1nc(-c2cccs2)cc(C(F)(F)F)n1)Nc1cc(Br)ccc1O,?,?
CCOC(=O)c1cccc(NC(=O)NC(C)c2c(-n3cccc3)sc3c2CCN(C)C3)c1 (stereo not given),?,-33%
Cc1c(CCNC(=O)c2ccc(Br)o2)sc2nc(-c3ccc(F)cc3)nn12,?,?
CCc1ccc(CNC(=O)c2ccc3c(Cl)c4c(nc3c2)CCCC4)cc1,?,-2%
CCOc1ccc(CCNC(=O)c2cn(-c3ccc(OC)cc3)c(=O)c3ccccc23)cc1OCC,-4%,-16%
CCOc1ccc(NC(=O)COc2ccc(S(=O)(=O)NC3CCCCC3)cc2)cc1,-13%,?
CCc1ccccc1NC(=O)N1CCCn2nc(C)cc21,-24%,-15%
CCCc1ccc(OC(C)c2nc(-c3ccc(-n4cccc4)cc3)no2)cc1 (stereo not given),-12%,-1%
COC(=O)c1ccc(NC(=O)CCc2c(C)nc3c(-c4ccccc4)c(C)nn3c2C)cc1,-14%,-27%
CCc1ccccc1NC(=O)Cn1c(=O)n(-c2ccccc2)c(=O)c2oc3ccccc3c21,-11%,5%
O=C(C1CCCN(S(=O)(=O)c2cccc3nsnc23)C1)N1CCN(c2ccccc2)CC1 (stereo not given),?,?
Cc1nc(N)ncc1-c1nc(N2CCOCC2)c2sc(C(C)(C)O)cc2n1,nt,?
Cc1ccc2c(c1)N(C(=O)CCC(=O)NCc1ccccc1Cl)CC(C)O2 (stereo not given),4%,-31%
O=C(Cc1ccc(Cl)cc1)Nc1ccc2oc(-c3ccccc3)nc2c1,-21%,18%
CC(=O)Nc1ccc(NC(=O)C2CCN(c3c(NC(C)=O)c(C)nn3-c3ccccc3)CC2)cc1,?,34%[activator]
Fc1ccc(CN2CCc3nc(N4CCN(c5ccccc5F)CC4)ncc3C2)c(F)c1,-4%,-47%
Cc1ccc2oc3c(c(=O)c2c1)C(c1cccc(O)c1)N(CCCN1CCOCC1)C3=O (stereo not given),?,-9%
Cc1c(Cl)cccc1-c1ccc(/C=C(\C#N)c2nc3ccccc3[nH]2)o1,?,-17%
COc1ccc(-c2cc(C(=O)Oc3ccc(C#N)cc3)no2)cc1,-12%,9%
COc1ccc(OC)c(NC(=O)c2cnc(Nc3ccc(C)c(Cl)c3)c3ccccc23)c1,2%,-14%
O=C(c1ccco1)n1nc(-c2ccccc2)nc1NCc1ccc(Cl)cc1,?,0%
CC1CCCN(c2nc3c(S(=O)(=O)c4ccc(C(C)C)cc4)nnn3c3ccsc23)C1 (stereo not given),?,-3%

# Copied from the list.
# For PMP22 txn, CCc1ccccc1NC(=O)Cn1c(=O)n(-c2ccccc2)c(=O)c2oc3ccccc3c21 reads -11%
# For HTT prom inh, CCOc1ccc(CCNC(=O)c2cn(-c3ccc(OC)cc3)c(=O)c3ccccc23)cc1OCC reads -16%
# For HTT prom inh, CCOC(=O)c1cccc(NC(=O)NC(C)c2c(-n3cccc3)sc3c2CCN(C)C3)c1 (stereo not given) reads -33%
# For HTT prom inh, Cc1c(Cl)cccc1-c1ccc(/C=C(\C#N)c2nc3ccccc3[nH]2)o1 reads -17%

# Quoted at random: 2 entries already listed, in no set order.
SMILES,PMP22 txn,HTT prom inh
Cc1c(Cl)cccc1-c1ccc(/C=C(\C#N)c2nc3ccccc3[nH]2)o1,?,-17%
Cc1c(CCNC(=O)c2ccc(Br)o2)sc2nc(-c3ccc(F)cc3)nn12,?,?

# More results.
SMILES,PMP22 txn,HTT prom inh
CC1=C(C(=O)Nc2cccnc2)C(c2ccc(F)cc2)n2nc(SCc3ccccc3)nc2N1 (stereo not given),2%,-9%
COc1ccc(C)cc1NC(c1nnc(-c2ccccc2)o1)c1ccc(F)cc1Cl (stereo not given),-20%,-24%
COc1ccc(-c2cc(C(F)(F)F)n3nc(C(=O)Nc4sc5c(c4C#N)CCC(C)C5)cc3n2)cc1OC (stereo not given),2%,-9%[11.5 µM]
COc1ccc(CNc2nc3c(-c4ccccc4)nnn3c3ccccc23)cc1,-63%,-16%
O=C(Cc1ccc(F)cc1)N1CCC(c2nc3c(nnn3Cc3ccc(F)cc3)c(=O)[nH]2)CC1,8%,-16%
COc1ccc(N2CCN(C(=O)c3ccc(CS(=O)c4cccc(C)c4)o3)CC2)cc1 (stereo not given),-17%,-19%
Cc1ccc2oc3c(c(=O)c2c1)C(c1ccc(F)cc1)N(Cc1ccc2c(c1)OCO2)C3=O (stereo not given),-3%,-4%
COc1ccccc1CNC(=O)C1CCN(c2nn3c(=O)cc(C)nc3s2)CC1,-17%,-19%
Cc1cccc(-c2nc3c4ccccc4nc(NCc4ccc(Cl)cc4)n3n2)c1,-33%,7%
CCOC(=O)c1c(NC(=O)CS(=O)(=O)c2ccc(C)cc2)sc2c1CCC(C)C2 (stereo not given),-21%,?
CCc1ccc(OCC2c3cc(OC)c(OC)cc3CCN2C(=O)c2ccc(S(=O)(=O)N3CCCC3)cc2)cc1 (stereo not given),-17%,-24%
CCOC(=O)c1ccccc1NC(=O)Cc1c(C(=O)O)c(C)cn1C,7%,-23%
CC(C)COc1cccc(C(=O)Nc2ccc(-c3nc4ncccc4o3)cc2)c1,2%,-13%[11.5 µM]
CCCCc1ccc(-n2nc3ccc(NC(=O)c4cc5ccccc5o4)cc3n2)cc1,?,44%[activator]
CCC(=O)N1CCc2cc(S(=O)(=O)NC(CC(C)C)C(=O)NCc3cccc(OC)c3)ccc21 (stereo not given),2%,-16%
Cc1cc(C)c(NC(=O)CN(c2ccccc2)S(=O)(=O)N(C)C)c(C)c1,-19%,-15%
COc1ccc(CCNC(=O)CCn2c(=O)c3cccn3c3cccnc32)c(OC)c1OC,-3%,-4%
CSCCC(NS(=O)(=O)c1ccc2c(c1)oc(=O)n2C)C(=O)NCc1ccc(Cl)cc1 (stereo not given),-39%,-1%
COc1cc(C=CC(=O)CC(=O)C=Cc2ccc(O)c(OC)c2)ccc1O,nt,?
O=C(Nc1ccc(F)c(Cl)c1)C1CCCN(c2cnccn2)C1 (stereo not given),30%,-11%
CC1CCN(S(=O)(=O)c2ccc3c(c2)c(=O)c(C(=O)N2CCN(c4cccc(Cl)c4)CC2)cn3C)CC1,-3%,-4%
COc1cc(CN(CC2CCCO2)C(=O)c2ccccc2F)cc(OC)c1OC (stereo not given),19%,3%
COc1cc(NC(=O)N2c3ccccc3Sc3ccccc32)cc(OC)c1,?,?
Cc1ccccc1-n1nc(CO)c(C(=O)NCC(c2ccccc2)c2ccccc2)n1,-3%,?
COc1cc(OC)cc(C(=O)Nc2ccc(S(=O)(=O)N3CCCCC3c3cccnc3)cc2)c1 (stereo not given),?,?

# Brought forward from above: 2 entries; new compounds follow.
SMILES,PMP22 txn,HTT prom inh
Cc1ccccc1-n1nc(CO)c(C(=O)NCC(c2ccccc2)c2ccccc2)n1,-3%,?
COc1cc(OC)cc(C(=O)Nc2ccc(S(=O)(=O)N3CCCCC3c3cccnc3)cc2)c1 (stereo not given),?,?
CCN(CC)c1ccc(C(=O)Nc2ccc3nc(N(CC)CC)cc(C)c3c2)cc1,?,-23%
CCCCc1nn2c(=O)cc(COC(=O)c3cccs3)nc2s1,-23%,19%
CCCOc1ccc(C(=O)NCC2OCCc3ccccc32)cc1 (stereo not given),-27%,16%
COc1cccc(NC(=O)CC2NCCNC2=O)c1 (stereo not given),-12%,4%
CC(=O)c1cccc(NC(=O)CN2C(=O)CCc3cc(S(=O)(=O)N4CCCCC4)ccc32)c1,10%,?
COC(=O)c1ccc(NC(=O)CSc2ncc3c(n2)-c2cc(Cl)ccc2N(Cc2ccccc2)S3(=O)=O)cc1,?,-22%
CCCS(=O)(=O)c1ncc(Cl)c(C(=O)Nc2c(C(=O)Nc3ccccc3)oc3ccccc23)n1,7.1µM*,13%
CCc1nnc(NC(=O)CSc2nccn2Cc2ccc(Cl)cc2)s1,-4%,5%
CCOc1ccccc1CC1C(=O)Nc2ccc(Br)cc21 (stereo not given),?,18µM*
Cc1cccc(-c2noc(-c3ccc(NCC4CCCO4)c([N+](=O)[O-])c3)n2)c1 (stereo not given),-33%,15%
Cc1cccc(Cn2nc(C)n3c(cc4cc(C)ccc43)c2=O)c1,?,-3%
Cc1ccc2oc(C(=O)Nc3sc4c(c3C(=O)NCc3ccccc3)CCCC4)cc(=O)c2c1,?,6%[11.5 µM]
CCc1ccc(S(=O)(=O)c2nnn3c2nc(N(CC)Cc2ccccc2)c2cc(Cl)ccc23)cc1,6.7µM*,5%
COc1ccc(Nc2nc3ccc(Cl)cc3n3nnnc23)cc1OC,-35%,-13%
CCC(CC)C(=O)Nc1cccc(-c2nc3ccccc3s2)c1,-43%,-14%
Cc1ccc(C)c(N2CCN(Cc3nnc(-c4ccccc4)o3)CC2)c1,-23%,-25%
Cc1cccc(NC(=O)CSc2nc(C)c(Cc3ccccc3)c(=O)[nH]2)c1C,24%,-10%
CCc1cccc(NC(=O)c2coc(=O)c3ccccc23)c1,-18%,-21%
Cc1ccc(C)c(N2CCN(C(=O)c3cc(S(=O)(=O)N4CCCCC4)cn3C)CC2)c1,-16%,-30%
CCCCN(C)C(=O)c1cn(C)c2ccc(S(=O)(=O)N3CCC(C)CC3)cc2c1=O,4%,-10%
Cc1ccc(-n2cc(C(=O)Oc3cccc(C)c3)c3ccccc3c2=O)cc1,-4%,-9%
Cc1ccc(CNC(=O)c2cccn2-c2nnc(N3CCCCC3)s2)cc1,-9%,-13%
CCc1ccc(C2=C(C)C(N3CCC(C(=O)NCc4ccccc4)CC3)=NS2(=O)=O)cc1,-23%,-38%
COc1cc([N+](=O)[O-])ccc1NC(=O)N1CCN(c2cc(-c3noc(C)n3)ccc2C)CC1,-19%,?
CCS(=O)(=O)c1nc(S(=O)(=O)c2ccc(Cl)cc2)c(NCc2ccc(Cl)cc2)s1,2%,-25%

# Entries of single compounds, quoted from the list. Order of screens: PMP22 txn | HTT prom inh
# Profile of `CCc1ccc(C2=C(C)C(N3CCC(C(=O)NCc4ccccc4)CC3)=NS2(=O)=O)cc1` = -23% | -38%
# Profile of `CCS(=O)(=O)c1nc(S(=O)(=O)c2ccc(Cl)cc2)c(NCc2ccc(Cl)cc2)s1` = 2% | -25%
# Profile of `Cc1ccc(C)c(N2CCN(C(=O)c3cc(S(=O)(=O)N4CCCCC4)cn3C)CC2)c1` = -16% | -30%
# Profile of `Cc1cccc(NC(=O)CSc2nc(C)c(Cc3ccccc3)c(=O)[nH]2)c1C` = 24% | -10%
# Profile of `CCN(CC)c1ccc(C(=O)Nc2ccc3nc(N(CC)CC)cc(C)c3c2)cc1` = ? | -23%

# Going on with the list:
SMILES,PMP22 txn,HTT prom inh
Fc1ccc(-c2noc3ncnc(N4CCCCC4)c23)cc1,?,-5%
CN(c1ccccc1)S(=O)(=O)c1nnc(NC(=O)COc2ccccc2)s1,55%,-15%
CC(C)(C)C(=O)NCCc1nc2ccccc2n1CCCCOc1ccc(Cl)cc1,?,?
Cc1c(-c2ccccc2)c(=O)oc2c(CN3CCOCC3)c(O)ccc12,-3%,-4%
CCOc1ccc(Cn2c(CNS(=O)(=O)c3ccc(Cl)s3)nc3cccnc32)cc1,-7%,-22%
O=C(Nc1ccc(S(=O)(=O)N(Cc2ccccc2)c2ccccc2)cc1)c1ccccc1F,16%,-25%
Nc1nn(-c2ccccc2)nc1C(=O)OCc1ccccc1Br,1%,5%
COc1cccc(-n2c(C)nc3c(cnn3-c3ccc(C)c(C)c3)c2=O)c1,?,-15%
COc1cccc(N2CCN(C(=O)c3cc4c(s3)-c3c(C)cccc3OC4)CC2)c1,-14%,-2%
CCOc1ccc(CNC(=O)C2CCCN(S(=O)(=O)c3ccc4c(c3)CCCC(=O)N4)C2)cc1 (stereo not given),?,-30%
COc1ccc(NC(=O)c2oc3ccccc3c2NC(=O)COc2ccc(F)cc2)c(OC)c1,-7%,-7%
COc1ccc(Cl)cc1NC(=O)C(C)n1c(=O)cc(C(F)(F)F)c2c(C)nn(C)c21 (stereo not given),?,-12%
O=c1ccc2cc(S(=O)(=O)N3CCCC3)ccc2[nH]1,-5%,-16%
CCOc1cc(-c2nc(-c3ccc(-c4ccccc4)nc3OCC)no2)cc(OCC)c1OCC,-18%,7%
CCOC(=O)N1CCc2c(sc3c2c(=O)n(CCc2ccccc2)c(=O)n3CC(=O)Nc2ccccc2C)C1,-16%,-10%
C=Cc1ccc(CN2C(=O)N(c3ccc(C)c(C)c3)S(=O)(=O)c3ccccc32)cc1,-21%,-23%
COc1ccc(CNC(=O)c2ccc3[nH]c(C)c(C)c3c2)c(OC)c1,5%,-4%
CCOC(=O)c1c(C)oc2ccc(N(C(C)=O)S(=O)(=O)c3c(C)cc(C)cc3C)cc12,?,-24%
Cc1ccc(Cn2c(CNS(=O)(=O)c3ccc(F)c(Cl)c3)nc3cccnc32)cc1,-46%,-13%
Cc1ccc(Cl)cc1NC(=O)c1cc2c(=O)n3cccc(C)c3nc2n1C,-15%,1%
